# Screening data as filed in PubChem BioAssay.
# Vaccinia inh = blocks a specific stage of Vaccinia orthopoxvirus infection, primary screen, cell-based, single point; Vaccinia-infected cells, mCherry/Venus stage reporter fluorescence; hits give low values; some inactives read as strong as hits; activity change (mCherry), % (test concentration not listed); hit rate 0.01% among 89,000; AID 1053133, 2014;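 active means mCherry past -33% and 40 or more points under the early reporter, replicates agreeing; inconclusive means past -33% without that gap or agreement; tested in A549 cells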;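 further: scaled between vehicle wells and reference inhibitor wells; 23 nL library stock went into each well; one replicate is shown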
# Vaccinia inh Venus = second read-out of Vaccinia inh, no call of its own (marks repeat the call); activity change (Venus), %; measured here: Venus reporter, other viral stage;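 negative = less Venus signal; first of two replicates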
# * marks the source's active call; other numbers are inactive results; ? = inconclusive; . = no result given. Some of the compounds tested, so the mix of outcomes need not match the whole.
compound,Vaccinia inh,Vaccinia inh Venus
CCNC(=O)C[C@@H]1CC[C@@H]2[C@H](COc3ccc(NC(=O)C4CCCCC4)cc3C(=O)N2C)O1,-6,-8
CN1C(=O)c2cc(NC(=O)c3cccc(Cl)c3)ccc2OC[C@H]2O[C@@H](CC(=O)NC3CCCCC3)CC[C@@H]21,16,11
N#Cc1ccc(-c2ccc([C@H]3[C@H](CO)N4C(=O)CN(C(=O)Cc5ccccc5)C[C@@H]34)cc2)cc1,9,6
C[C@@H]1CN([C@H](C)CO)C(=O)c2cc(NC(=O)Cc3cn(C)c4ccccc34)ccc2O[C@H]1CN(C)C(=O)Nc1cccc2ccccc12,-2,6
C[C@@H]1CN([C@H](C)CO)S(=O)(=O)c2ccc(/C=C/c3ccccc3)cc2O[C@@H]1CN(C)Cc1ccc(C(=O)O)cc1,-1,-9
C[C@@H](NC(=O)C[C@H]1C=C[C@H](NC(=O)Cc2ccccn2)[C@H](CO)O1)c1ccccc1,12,12
C[C@@H]1CN([C@H](C)CO)C(=O)c2cc(NS(C)(=O)=O)ccc2O[C@@H](C)CCCCO[C@H]1CN(C)Cc1ccncc1,6,-3
COc1ccc(NC(=O)N(C)C[C@@H]2Oc3ccc(NC(=O)C4CCCCC4)cc3C(=O)N([C@@H](C)CO)C[C@@H]2C)cc1,15,13
CN1C[C@H](O)COC[C@H]2O[C@@H](CC(=O)NC3CCC3)CC[C@@H]21,6,22
COc1ccccc1C(=O)Nc1ccc2c(c1)C(=O)N(C)C[C@H](OC)[C@H](C)CN(CC1CC1)[C@H](C)CO2,-6,-7
COc1ccc(NC(=O)N(C)C[C@H]2OCCCC[C@@H](C)Oc3ccc(NS(=O)(=O)c4ccc(F)cc4)cc3C(=O)N([C@H](C)CO)C[C@@H]2C)cc1,16,0
O=C(c1ccccn1)N1C[C@H]2[C@@H](c3ccccc31)[C@H](CO)N2C(=O)C1CC1,-1,1
C[C@H](CO)N1C[C@H](C)[C@@H](CN(C)Cc2ccc(C(=O)O)cc2)OCCCC[C@H](C)Oc2ccc(NC(=O)NC3CCCCC3)cc2C1=O,23,11
Cc1ccccc1S(=O)(=O)N1CC(=O)N2[C@H](CO)[C@H](c3ccc(C#CCC4CCCC4)cc3)[C@H]2C1,3,5
C[C@H](CO)N1C[C@H](C)[C@H](CN(C)S(=O)(=O)c2ccc(F)cc2)Oc2ncc(C#CC(C)(C)O)cc2C1=O,9,2
Cc1noc(C)c1S(=O)(=O)Nc1ccc2c(c1)C(=O)N([C@@H](C)CO)C[C@H](C)[C@H](CN(C)Cc1ccncc1)O2,2,5
C[C@H]1C=C(C(=O)N2CCN(Cc3ccc4c(c3)OCO4)CC2)O[C@@H](OCc2ccc(CO)cc2)C1,10,9
Cc1noc(C)c1S(=O)(=O)Nc1ccc2c(c1)C(=O)N([C@H](C)CO)C[C@@H](C)[C@H](CN(C)S(=O)(=O)c1ccccc1)OCCCC[C@@H](C)O2,?,.
O=C(C[C@@H]1C[C@H]2c3cc(NC(=O)NC4CCCC4)ccc3O[C@H]2[C@H](CO)O1)NCc1ccc(-c2ccccc2)cc1,6,8
C[C@@H]1CN([C@@H](C)CO)C(=O)c2cc(NS(=O)(=O)c3cccs3)ccc2O[C@H]1CN(C)S(=O)(=O)c1ccccc1,17,10
C[C@H]1CCCCO[C@@H](CN(C)C(=O)CCCN(C)C)[C@@H](C)CN([C@@H](C)CO)C(=O)c2cc(NS(=O)(=O)c3ccc(F)cc3)ccc2O1,8,0
C[C@@H]1CN([C@@H](C)CO)S(=O)(=O)c2ccc(C#CC3CC3)cc2O[C@@H]1CN(C)C(=O)c1ccccc1,-15,-15
Cn1cnc(CCNC(=O)C[C@H]2CC[C@@H]3[C@H](COC[C@H](O)CN3C(=O)Nc3ccc(F)cc3)O2)c1,9,3
COc1ccc(NC(=O)N(C)C[C@H]2Oc3ccc(NC(=O)Nc4cccc5ccccc45)cc3CC(=O)N([C@H](C)CO)C[C@H]2C)cc1,16,19
C[C@@H]1CN([C@H](C)CO)C(=O)c2cc(NS(=O)(=O)c3ccc(Cl)cc3)ccc2O[C@H]1CN(C)Cc1ccc(C(=O)Nc2ccccc2N)cc1,-5,-8
C[C@H]1CN([C@@H](C)CO)C(=O)CCCn2nncc2CO[C@H]1CN(C)Cc1cccc2c1OCCCO2,8,8
C[C@@H]1CN([C@H](C)CO)C(=O)c2cccc(NC(=O)C3CC3)c2O[C@@H]1CN(C)S(C)(=O)=O,9,4
COc1ccc(C(=O)Nc2ccc3c(c2)C(=O)N(C)C[C@H](OC)[C@@H](C)CN(C(C)=O)[C@@H](C)CO3)cc1,-7,-2
CCCNC(=O)N(C)C[C@@H]1Oc2ncc(C3=CCCCC3)cc2C(=O)N([C@H](C)CO)C[C@H]1C,3,2
CC(C)CC#Cc1ccc2c(c1)O[C@@H](CN(C)S(=O)(=O)c1cccc(F)c1)[C@@H](C)CN([C@H](C)CO)S2(=O)=O,0,3
CNC[C@H]1Oc2ccc(NS(=O)(=O)c3cn(C)cn3)cc2C(=O)N([C@H](C)CO)C[C@H]1C,6,2
C[C@H](O)C#Cc1ccc2c(c1)O[C@@H](CN(C)C(=O)C1CCCCC1)[C@H](C)CN([C@@H](C)CO)S2(=O)=O,-10,-5
C[C@H]1CN([C@@H](C)CO)C(=O)Cc2cc(NC(=O)Nc3ccccc3)ccc2O[C@@H]1CN(C)Cc1ccc(Cl)c(Cl)c1,?,.
C[C@@H]1CN([C@H](C)CO)C(=O)Cc2cc(NC(=O)CCCCCC(=O)Nc3ccccc3N)ccc2O[C@@H]1CN(C)CC1CC1,2,-5
C[C@H](CO)N1C[C@H](C)[C@@H](CN(C)Cc2ccccn2)Oc2cc(C#C[C@@H](C)O)ccc2S1(=O)=O,6,5
COc1ccc(NC(=O)N[C@@H]2CC[C@H](CCNC(=O)CN3CCOCC3)O[C@H]2CO)cc1,5,6
CC(C)NC(=O)Nc1cccc2c1O[C@@H](CN(C)S(=O)(=O)c1ccccc1)[C@H](C)CN([C@@H](C)CO)C2=O,14,5
CCCNC(=O)N(C)C[C@@H]1Oc2cc(-c3ccccc3F)ccc2S(=O)(=O)N([C@@H](C)CO)C[C@H]1C,-21,-12
CN(C)CC#Cc1ccc([C@@H]2[C@H](CO)N3CCCCN(CC4CC4)C[C@@H]23)cc1,15,5
CC(C)NC(=O)Nc1cccc2c1O[C@H](CN(C)Cc1ccc3c(c1)OCO3)[C@H](C)CN([C@H](C)CO)C2=O,5,11

# Reprinted at random: two entries already listed.
compound,Vaccinia inh,Vaccinia inh Venus
CC(C)NC(=O)Nc1cccc2c1O[C@H](CN(C)Cc1ccc3c(c1)OCO3)[C@H](C)CN([C@H](C)CO)C2=O,5,11
CC(C)NC(=O)Nc1cccc2c1O[C@@H](CN(C)S(=O)(=O)c1ccccc1)[C@H](C)CN([C@@H](C)CO)C2=O,14,5

# New compounds follow.
compound,Vaccinia inh,Vaccinia inh Venus
COc1cccc(-c2ccc3n(c2=O)C[C@@H]2[C@@H](CO)[C@H](C(=O)NC4CCC4)[C@H]3N2C)c1,9,10
C[C@H](CO)N1C[C@H](C)[C@@H](CN(C)S(C)(=O)=O)Oc2ccc(NC(=O)Nc3ccc4c(c3)OCO4)cc2C1=O,33,26
COc1ccc(S(=O)(=O)Nc2ccc3c(c2)C(=O)N([C@@H](C)CO)C[C@H](C)[C@@H](CN(C)Cc2ccc(C(=O)Nc4ccccc4N)cc2)O3)cc1,2,-2
CCC(=O)N(C)C[C@@H]1Oc2ncc(-c3ccc(C(=O)N(C)C)cc3)cc2C(=O)N([C@H](C)CO)C[C@H]1C,25,14
CS(=O)(=O)Nc1ccc2c(c1)[C@@H]1C[C@@H](CC(=O)NCc3cccc(F)c3)O[C@@H](CO)[C@@H]1O2,3,5
CCCNC(=O)[C@@H]1[C@@H](CO)[C@@H]2Cn3c(ccc(-c4ccccc4F)c3=O)[C@H]1N2CC1CC1,7,0
C[C@@H]1CCCCO[C@@H](CN(C)S(=O)(=O)c2ccc(Cl)cc2)[C@@H](C)CN([C@H](C)CO)C(=O)c2cc(NS(=O)(=O)c3cn(C)cn3)ccc2O1,19,13
CNC[C@@H]1Oc2ccc(NS(=O)(=O)c3ccccc3)cc2C(=O)N([C@@H](C)CO)C[C@@H]1C,14,-3
C[C@@H]1CN([C@H](C)CO)C(=O)Cc2cc(NC(=O)Cc3ccccc3)ccc2O[C@@H]1CN(C)C(=O)Nc1ccc(F)cc1,14,-3
O=C(Nc1ccccc1)N1CC(=O)N2[C@H](CO)[C@@H](c3ccc(C#CC4CC4)cc3)[C@H]2C1,?,.

# Record cards, as listed above. Order of values: Vaccinia inh	Vaccinia inh Venus
# COc1ccc(S(=O)(=O)Nc2ccc3c(c2)C(=O)N([C@@H](C)CO)C[C@H](C)[C@@H](CN(C)Cc2ccc(C(=O)Nc4ccccc4N)cc2)O3)cc1 across the screens: 2	-2
# CCCNC(=O)[C@@H]1[C@@H](CO)[C@@H]2Cn3c(ccc(-c4ccccc4F)c3=O)[C@H]1N2CC1CC1 across the screens: 7	0
# CCC(=O)N(C)C[C@@H]1Oc2ncc(-c3ccc(C(=O)N(C)C)cc3)cc2C(=O)N([C@H](C)CO)C[C@H]1C across the screens: 25	14
# O=C(Nc1ccccc1)N1CC(=O)N2[C@H](CO)[C@@H](c3ccc(C#CC4CC4)cc3)[C@H]2C1 across the screens: ?	.
# CS(=O)(=O)Nc1ccc2c(c1)[C@@H]1C[C@@H](CC(=O)NCc3cccc(F)c3)O[C@@H](CO)[C@@H]1O2 across the screens: 3	5

# (more compounds)
compound,Vaccinia inh,Vaccinia inh Venus
COc1ccc(CN(C)C[C@H]2Oc3ccc(NC(=O)Nc4ccc5c(c4)OCO5)cc3CC(=O)N([C@H](C)CO)C[C@H]2C)cc1,-13,-2
CO[C@@H]1CC[C@H]2CCOc3ccc(C#N)cc3C(=O)N(C)C[C@@H](c3ccccc3)CC(=O)N(C)C[C@@H]1O2,13,6
CCN1[C@@H]2c3ccc(/C=C/c4ccccc4)c(=O)n3C[C@@H]2[C@@H](CO)[C@@H]1C(=O)N(C)C,-8,5
C[C@H](CO)N1C[C@H](C)[C@H](CN(C)Cc2cccnc2)Oc2ncc(-c3ccc(F)cc3)cc2C1=O,1,2
C[C@@H]1CN([C@H](C)CO)S(=O)(=O)c2ccc(-c3ccccc3)cc2O[C@H]1CN(C)C(=O)CN(C)C,5,8
Cc1ccc(S(=O)(=O)N[C@@H]2C=C[C@H](CC(=O)NCCCN(C)C)O[C@@H]2CO)cc1,3,8
C[C@@H]1CN([C@@H](C)CO)S(=O)(=O)c2ccc(C3=CCCCC3)cc2O[C@@H]1CN(C)Cc1cccnc1,?,.
Cc1noc(C)c1S(=O)(=O)N(C)C[C@@H]1Oc2ccc(NC(=O)Cc3cn(C)c4ccccc34)cc2CC(=O)N([C@@H](C)CO)C[C@H]1C,-2,-4
CO[C@@H]1CN(C)C(=O)c2ccc(NC(=O)c3ccno3)cc2OC[C@@H](C)NC[C@@H]1C,0,32
C[C@@H]1CCCCO[C@H](CN(C)Cc2ccncc2)[C@H](C)CN([C@H](C)CO)C(=O)c2cc(NS(=O)(=O)c3cccs3)ccc2O1,4,7
C/C=C/c1ccc2c(c1)O[C@@H](CN(C)Cc1ccccc1F)[C@H](C)CN([C@H](C)CO)S2(=O)=O,-34,-34
C[C@@H]1CN([C@H](C)CO)C(=O)c2cc(Br)cnc2O[C@@H]1CN(C)C(=O)c1cccc(F)c1,4,5
CCCNC(=O)N(C)C[C@@H]1Oc2cc(C#Cc3cccc(F)c3)ccc2S(=O)(=O)N([C@@H](C)CO)C[C@@H]1C,?,.
C[C@@H]1CCCCO[C@H](CN(C)S(=O)(=O)c2ccc(Cl)cc2)[C@H](C)CN([C@H](C)CO)C(=O)c2cc(NC(=O)NC3CCCCC3)ccc2O1,-27,-17
C[C@@H]1CN([C@H](C)CO)C(=O)CCCn2cc(nn2)CO[C@@H]1CN(C)CC1CCCC1,-6,2
CC(C)C#Cc1cnc2c(c1)C(=O)N([C@@H](C)CO)C[C@H](C)[C@H](CN(C)C(=O)c1cccc(F)c1)O2,10,3
C[C@@H]1CCCCO[C@H](CN(C)C(=O)Nc2ccc(C(F)(F)F)cc2)[C@@H](C)CN([C@@H](C)CO)C(=O)c2cc(NC(=O)Nc3cccc4ccccc34)ccc2O1,9,9
COc1ccc(NC(=O)N[C@@H]2CC[C@H](CCn3cc(-c4ccc(F)cc4)nn3)O[C@@H]2CO)cc1,6,2
C[C@@H]1CN([C@H](C)CO)C(=O)c2cc(NC(=O)CCCCCC(=O)Nc3ccccc3N)ccc2O[C@H]1CN(C)S(=O)(=O)c1cccs1,24,10
O=C(c1ccncc1)N1C[C@@H]2[C@H](c3ccccc31)[C@@H](CO)N2C(=O)CN1CCOCC1,9,9
C[C@@H]1CN([C@@H](C)CO)C(=O)c2cccc(NS(=O)(=O)c3ccc(F)cc3)c2O[C@H]1CN(C)C,8,-4
CC(C)NC(=O)N[C@@H]1C[C@@H]2O[C@H](CO)CC[C@@H]2O[C@@H]1CCc1ccc(-c2ccccc2F)cc1,-7,-7
C[C@H](CO)N1C[C@H](C)[C@@H](CN(C)Cc2ccccc2)Oc2ccc(NS(=O)(=O)c3cccs3)cc2C1=O,13,1
C[C@@H]1CN([C@@H](C)CO)S(=O)(=O)c2ccc(C#CC3CC3)cc2O[C@H]1CN(C)CC1CCOCC1,-27,-19
O=C(c1ccccn1)N1CC2(C1)[C@H](c1ccccc1)[C@@H](CO)N2C(=O)C1CCC1,0,-4
C[C@@H]1CN([C@H](C)CO)C(=O)c2cc(C#CC3CC3)cnc2O[C@@H]1CN(C)S(C)(=O)=O,24,12
COCCNC(=O)c1cc2c(c(-c3cccc(-c4ccc(C#N)cc4)c3)n1)[C@H](CCO)N(C(=O)CC1CC1)C2,2,3
COc1cccc(S(=O)(=O)N[C@@H]2CC[C@H](CC(=O)NCc3ccncc3)O[C@H]2CO)c1,12,12
